VDR inhibitor = inhibitors of human vitamin D receptor | VDR-SRC2-3 peptide fluorescence polarization, 2 h | 0.93% of 400,000 active | P11473 | AID 504847 | Potency, µM, for inactives: max response, negative = inhibition, usual class: inhibitors; active = well fitted inhibition curve with a large enough effect; inconclusive = small, poorly fitted or top-dose-only effect, or another doubt; inactive = no such curve, though single readings can be large or run the other way; also: series mostly up to about 120 µM
Target sequence (P11473 whole entry, looked up): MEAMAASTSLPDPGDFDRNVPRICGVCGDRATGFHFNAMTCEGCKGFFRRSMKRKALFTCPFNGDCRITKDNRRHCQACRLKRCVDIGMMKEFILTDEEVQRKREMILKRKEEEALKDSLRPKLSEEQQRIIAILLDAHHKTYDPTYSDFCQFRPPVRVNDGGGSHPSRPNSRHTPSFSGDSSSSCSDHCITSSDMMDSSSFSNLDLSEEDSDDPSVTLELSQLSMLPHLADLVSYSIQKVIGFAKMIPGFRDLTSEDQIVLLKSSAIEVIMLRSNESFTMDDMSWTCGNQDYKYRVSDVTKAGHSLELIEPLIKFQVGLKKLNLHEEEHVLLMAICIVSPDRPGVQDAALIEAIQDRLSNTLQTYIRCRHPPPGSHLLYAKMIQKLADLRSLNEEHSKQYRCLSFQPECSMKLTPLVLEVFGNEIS
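Two reagent solutions held at 4 deg C in the dark were dispensed, compounds pinned at 23 nl, and the mixture incubated 2 h at room temperature. Read-out: fluorescence polarization of VDR–SRC2-3 peptide binding.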
Numbers without * were called inactive; u = inconclusive. % is scaled to controls: 0 for no effect and ±100 for the full control effect; potency is read from the fitted curve at half-maximal effect.

The first 3 records, ahead of the listing:
#	compound	VDR inhibitor
1	O=C(NCc1nc2ccccc2[nH]1)C1=C[C@H](c2ccc3c(c2)OCO3)C[C@H](OCc2ccc(CO)cc2)O1	-1%
2	COc1ccc(CCNc2ccc(S(=O)(=O)N3CCCC3)cc2[N+](=O)[O-])cc1	0%
3	COc1cc(OC)c(NC(=O)c2csc(C)c2)cc1Cl	15%

The whole of this part (from the top)
#	compound	VDR inhibitor
1	O=C(NCc1nc2ccccc2[nH]1)C1=C[C@H](c2ccc3c(c2)OCO3)C[C@H](OCc2ccc(CO)cc2)O1	-1%
2	COc1ccc(CCNc2ccc(S(=O)(=O)N3CCCC3)cc2[N+](=O)[O-])cc1	0%
3	COc1cc(OC)c(NC(=O)c2csc(C)c2)cc1Cl	15%
4	CCOc1ccc(-n2ccnc(SCC(=O)Nc3ccc(OC)cc3OC)c2=O)cc1	u
5	O=C(C[C@@H]1C/C=C\CC[C@@H](Cc2ccc(F)cc2)C(=O)OC[C@@H]2CCCN2C1=O)N[C@H](CO)Cc1ccccc1	-1%
6	O=C1CSC(c2cccc(Cl)c2Cl)N1c1ccccn1 (stereo unspecified)	-13%
7	O=C(Nc1ccccc1C(=O)Nc1ccc(Br)cn1)c1ccccc1Cl	-7%
8	CC[C@H](C)[C@@H](NC(=O)O[C@@H]1C(=O)c2cc(OC)ccc2O[C@H]1c1cccc(OC)c1)C(=O)OC	12%
9	CCOC(=O)c1sc(NC(=S)NC(=O)C2CCCC2)cc1C	-7%
10	CC(O)C(NS(=O)(=O)c1ccc(Cl)cc1)C(=O)OCC(=O)c1ccc2c(c1)NC(=O)CO2 (stereo unspecified)	-5%
11	O=C(Cc1ccc(F)cc1)NC1CCS(=O)(=O)C1 (stereo unspecified)	-18%
12	CC[N+]1(CC)CC2=Cc3c(ccc4ccccc34)C(C)C2C1 (stereo unspecified)	4%
13	COc1cccc(CNC(=O)Cn2c(=O)oc3cc(S(=O)(=O)N4CCCC4)ccc32)c1	4%
14	Cc1ccc(OCC(=O)NC(C)c2ccc(Cl)c(Cl)c2)c([N+](=O)[O-])n1 (stereo unspecified)	-10%
15	N#Cc1cc([N+](=O)[O-])ccc1NCCc1ccccn1	-4%

The listing continues.
#	compound	VDR inhibitor
16	O=C(CSc1nncn2c1cc1occc12)Nc1ccccc1C(F)(F)F	-3%
17	Cc1cc(NC(=O)c2ccccc2[N+](=O)[O-])ccc1Br	19%
18	Cc1nnc(SCc2ccc(F)cc2Cl)s1	-2%
19	COc1cc(OC)cc(C(=O)Nn2c(C)nc3ccccc3c2=O)c1	-6%
20	CCOc1ccc(CN(C)C(=O)c2ccc(NC(=O)CC3SC(N4CCCC4)=NC3=O)cc2)cc1 (stereo unspecified)	3%
21	CCn1cc(CN(C)S(=O)(=O)c2cccc([N+](=O)[O-])c2)cn1	-24%
22	CC(C)Sc1nnc(NC(=O)c2ccco2)s1	5%
23	CCOC(=O)C1C(=O)NC(N2CCCCC2)=NC1c1ccco1 (stereo unspecified)	5%
24	CCc1ccc(CN(Cc2cccnc2)C(=O)/C=C/c2ccc(OC)cc2)cc1	-11%
25	Cc1cccnc1NCC(O)COc1ccccc1 (stereo unspecified)	-6%
26	COc1ccc(N2CCN(c3ccc(C(=O)O)cc3[N+](=O)[O-])CC2)cc1	4%
27	Cc1cc(CNC(=O)C2CCC(=O)N(Cc3ccccc3F)C2)nn1C (stereo unspecified)	-13%
28	CN(C)N1C(N)=C(C#N)C(c2cccs2)C2=C1CCCC2=O (stereo unspecified)	0%
29	CC(=O)Nc1ccc(Sc2ccccc2C(=O)O)cn1	4%
30	O=C(NCC1CCCO1)c1ccc([N+](=O)[O-])s1 (stereo unspecified)	-10%

The list goes on:
#	compound	VDR inhibitor
31	COc1ccccc1CCN=C(N)NS(=O)(=O)c1cc(F)ccc1F	6%
32	O=C(Oc1cccc(Nc2ncnc3ccccc23)c1)c1cccnc1	17%
33	COc1ccc(CN2CCN(CCc3ccccc3)C(CCO)C2)c(O)c1 (stereo unspecified)	-12%
34	COc1ccc(NC(=O)NNC(=O)CCc2ccc(O)c(O)c2)cc1OC	-7%
35	N#CCSc1nnc2sc3ccccc3n12	-9%
36	COc1ccc2c(c1)c(C(=O)OCCN(C)C)c(C)n2C	-11%
37	COc1ccc(CN=Cc2c(O)[nH]c3ccccc23)cc1	-7%
38	CCn1cc(S(=O)(=O)Nc2ccc(C)c(Cl)c2)cn1	-15%
39	Cc1ccc(NC(=O)N2CCCN(C(=O)OC(C)(C)C)CC2)cc1Cl	13%
40	CCOC(=O)N1CCN(S(=O)(=O)c2ccc(OCC(=O)OC)c(Cl)c2)CC1	-11%
41	CC(C)C(=O)Nc1ccc2nc(SCC(=O)N3CCCC3)sc2c1	4%
42	COc1ccccc1N(CC(=O)N/N=C/c1ccc(OCC(=O)NCc2ccco2)cc1)S(=O)(=O)c1ccc(C)cc1	u
43	CC(C)c1nc2cc(C(=O)N3CCN(c4cnccn4)CC3)ccc2o1	-15%
44	CC(C)c1ccc(C2c3[nH]c4ccccc4c3C[C@H]3C(=O)N(c4ccccc4C(=O)N4CCC[C@@H]4C(=O)O)C(=O)N23)cc1 (stereo partly specified)	-1%
45	CCOc1ccc2ncc3c(-c4ccc(C)cc4)nn(-c4cccc(F)c4)c3c2c1	-3%

(list continues)
#	compound	VDR inhibitor
46	Cn1cc(S(=O)(=O)c2ccccc2)c(=O)c2cc(F)c(N3CCN(c4ccc(F)cc4)CC3)cc21	1%
47	COc1ccccc1NC(=O)N1CCN(Cc2nc3ccc(C)cc3o2)CC1	9%
48	COc1ccc(CN(C(=O)/C=C/C(=O)c2ccc(OC)cc2O)C(C(=O)NC2CCCCC2)c2ccncc2)cc1 (stereo unspecified)	-22%
49	Cc1cc(C)n(C(=O)CN2C(=O)CCC2=O)n1	5%
50	Cn1c(SCC(=O)NCc2ccccc2)ncc(C(=O)Nc2ccccc2)c1=O	-12%
51	Cc1ccc(C(=O)NCC(c2cccnc2)N2CCc3ccccc32)cc1C (stereo unspecified)	3%
52	CCN(CC(=O)Nc1ccccc1C(F)(F)F)C(=O)C1=COCCO1	-14%
53	CCCc1c(C)[nH]c2ccccc2c1=O	1%
54	COc1ccccc1CN1CCC(CNC(=O)c2cnn(-c3ccc(C)c(C)c3)c2C2CCN(C(=O)OC(C)(C)C)CC2)CC1	-9%
55	CCCCOc1cccc(C2/C(=C(/O)c3ccc4c(c3)CC(C)O4)C(=O)C(=O)N2CCN2CCOCC2)c1 (stereo unspecified)	-10%
56	CCC(Oc1ccccc1)C(=O)N1CCN(Cc2cc(=O)n3nc(-c4cccc(C)c4)sc3n2)CC1 (stereo unspecified)	0%
57	O=C(NC1CCCCC1)c1ccc2snnc2c1	-5%
58	CCOc1ccccc1NC(=O)c1sc2nc(-c3ccc(OC)cc3)ccc2c1N	-9%
59	O=c1c2oc3ccccc3c2n(Cc2cccc(Cl)c2)c(=O)n1Cc1ccc2c(c1)OCO2	-4%
60	O=C(NCc1cccs1)C1CCN(S(=O)(=O)c2cccc([N+](=O)[O-])c2)CC1	3%

Later entries:
#	compound	VDR inhibitor
61	CCOc1ccc(Oc2ccccc2NS(=O)(=O)c2ccc(CCC(=O)O)cc2)cc1	4%
62	C=CCNC(=O)CCCCCNS(=O)(=O)c1ccc(OC)cc1	5%
63	COc1ccc(NC(=O)Cn2cc(C(=O)c3cccs3)c3ccccc32)cc1	-1%
64	CCc1cccc(NC(=O)c2ccc(NS(=O)(=O)c3c(C)noc3C)cc2)c1	1%
65	CC(=O)Nc1ccc(OCC(=O)N(CC(C)C)C2CCS(=O)(=O)C2)cc1 (stereo unspecified)	-13%
66	CCN(C(=O)c1cc2c(=O)[nH]c3ccc(C)cc3c2s1)c1cccc(C)c1	-14%
67	CCC1(C)Cc2c(C#N)c(N)n(N)c(=S)c2CO1 (stereo unspecified)	-20%
68	COCCNC(=O)CCC1CCN(Cc2ccc(-c3ccccc3)cc2)CC1	8%
69	Cc1cc(C)c2c(=O)cc(C(F)(F)F)oc2n1	7%
70	O=C(NC1CC2CCCC(C1)N2C(=O)Nc1cccc(F)c1)C1CC1 (stereo unspecified)	-1%
71	COc1ccccc1/C=C/C(=O)OCC(=O)Nc1ccc2c(c1)OCO2	-12%
72	COCCCN(C(=O)c1ccc2ccccc2n1)c1c(N)n(Cc2ccccc2)c(=O)[nH]c1=O	-1%
73	CC(C)(C)OC(=O)N1Cc2ccccc2C[C@H]1C(=O)NCC(=O)NC1CCCC1	-9%
74	C/C(=N\Nc1nc(C)c(C)s1)c1ccc([N+](=O)[O-])cc1	-16%
75	Cc1ccsc1C(=O)OCC(=O)N1C(C)CCCC1C (stereo unspecified)	0%

(next part)
#	compound	VDR inhibitor
76	S=C(NCc1ccncc1)Nc1cccc(Cl)c1	-16%
77	CCOC(=O)c1c([N+](=O)[O-])c(C)[nH]c(=O)c1C#N	-1%
78	CCCNC(=O)COCc1cc(-c2ccc3c(c2)OCO3)on1	1%
79	O=C(N[C@@H](Cc1ccccc1)C(=O)OCc1ccccc1)c1nc[nH]c1C(=O)NCc1ccccc1	-2%
80	Cc1ccc(NC(=S)NCc2cccnc2)cc1	15%
81	Cc1cccc(C(=O)Nc2cccc(C(=O)N/N=C/c3ccncc3)c2)c1	10%
82	Cn1c(CCN2CCN(c3ccccn3)CC2)nc2cc(NS(=O)(=O)c3ccccc3)ccc21	0%
83	COc1ccc(-n2c(=O)c3ccccc3n(Cc3ccc(F)cc3Cl)c2=O)cc1OC	-6%
84	N#CC(OC(=O)c1ccccc1)c1ccccc1 (stereo unspecified)	-18%
85	CN(C)c1cccc(C(=O)N2CCC(c3c[nH]c4ccccc34)(c3c[nH]c4ccccc34)CC2)c1	0%
86	O=[N+]([O-])c1cc(S(=O)(=O)N2CCCCC2)ccc1NCCN1CCOCC1	4%
87	CS(=O)(=O)c1ccc(Cl)c(NC(=O)CN2C(=O)C3CCCCC3C2=O)c1 (stereo unspecified)	-4%
88	CCOC(=O)c1cc(NC(=O)N2CCCc3ccccc32)c(C)nc1C	-5%
89	CCOC(=O)CNC(=O)/C(=C\c1ccc(F)cc1)NC(=O)c1ccccc1	12%
90	CC1(c2ccccc2Cl)NC(=O)N(CC(=O)Nc2cccnc2Cl)C1=O (stereo unspecified)	15%

The list continues.
#	compound	VDR inhibitor
91	COc1ccc(NC(=O)c2cc(C)n(Cc3cccs3)c2C)cc1	-6%
92	COc1cccc(CC2(CO)CCN(S(=O)(=O)N(C)C)CC2)c1	3%
93	Cc1ccc(S(=O)(=O)Nc2ccc3nc(C)sc3c2)cc1	0%
94	Cn1ccc(NC(=O)Nc2cccc([N+](=O)[O-])c2)n1	11%
95	CC(C)Oc1ccc(CC(=O)NNC(=S)Nc2ccc(Br)cc2)cc1	71µM*
96	Cc1ccccc1NC(=O)c1cc2c(C)nc3ccccc3c2o1	1%
97	Cc1nn(C)c(C)c1S(=O)(=O)N1CCCC(C(=O)NCC2COc3ccccc3O2)C1 (stereo unspecified)	0%
98	Cc1ccc(NS(=O)(=O)c2ccc(OCC(=O)NCc3cccnc3)cc2)cc1	11%
99	Cc1ccc(CNC(=O)C2CCN(S(=O)(=O)N3CC(C)CC(C)C3)CC2)cc1 (stereo unspecified)	1%
100	O=C(NC1CCCCCC1)C1CCN(C(=O)Cc2ccccc2)CC1	-1%
101	c1ccc(C2=Nc3ccccc3OC2)cc1	-1%
102	Cc1ccc(S(=O)(=O)Nc2cc(=O)[nH]c(SCc3ccc(Cl)cc3)n2)cc1	-3%
103	CC(C)Oc1c(Cl)cc(CNC(C)(C)CO)cc1Cl	-8%
104	COc1ccc(Cl)cc1S(=O)(=O)N(C)CC(=O)NCc1ccccn1	11%
105	CCOC(=O)c1nn(-c2ccc(F)cc2)c(=O)c(C#N)c1C	-5%

Continued:
#	compound	VDR inhibitor
106	COc1cccc2[nH]c3c(=O)[nH]cnc3c12	9%
107	Fc1ccc(NC(=S)NCc2ccc3c(c2)OCO3)cc1	0%
108	Cc1cccc(N2CCN(c3nc4ccc(C(=O)c5ccccc5)cc4n4cnnc34)CC2C)c1 (stereo unspecified)	-6%
109	Cc1cc(C)cc(C(=O)N2CC(=O)Nc3ccccc32)c1	-9%
110	Cc1cccc(C)c1N(C(=O)c1ccco1)C(C(=O)NC1CCCC1)c1ccncc1 (stereo unspecified)	13%
111	COC(=O)c1sc(NC(=O)/C=C/c2ccc(OC)c(OC)c2)c(C(=O)OC)c1C	5%
112	COc1ccc(N2CCN(C(CNC(=O)CC(C)(C)C)c3ccc4c(c3)OCO4)CC2)cc1 (stereo unspecified)	-6%
113	O=C(O)CN1CCN(CC(=O)O)CCN(CC(=O)O)CCN(CC(=O)O)CC1	-12%
114	CCOC(=O)C1CCN(S(=O)(=O)c2ccc(C(=O)OC)cc2)CC1	-6%
115	O=C(CNC(=S)N(Cc1ccc(F)cc1)C1CCCCC1)NC1CC1	-14%
116	CC(Sc1nc2ccccc2s1)C(=O)NC1CCCc2ccccc21 (stereo unspecified)	-7%
117	COc1ccc(Br)cc1S(=O)(=O)NCCN1CCOCC1	3%
118	Cc1ccc2nc(SCC(=O)Nc3cc(C)on3)c(C)cc2c1	-26%
119	CN(C)CCNc1nc2c(c(=O)[nH]c(=O)n2C)n1CC(O)COc1ccc(Cl)cc1 (stereo unspecified)	-6%
120	CCN(CC)c1ccc(NC(=O)Nc2ccccc2C(F)(F)F)cc1	u

Other results:
#	compound	VDR inhibitor
121	CCCCc1nnc(NC(=O)c2ccc(S(=O)(=O)N3CCOCC3)cc2)s1	-3%
122	COC(=O)CNC(=O)c1ccccc1	12%
123	COC(=O)c1c(-c2ccco2)csc1NC(=O)C1CC=CCC1C(=O)O (stereo unspecified)	-5%
124	Cc1cc(Br)ccc1OCCCCNCCO	-8%

As a short view, 4 of the compounds above:
#	compound	VDR inhibitor
118	Cc1ccc2nc(SCC(=O)Nc3cc(C)on3)c(C)cc2c1	-26%
119	CN(C)CCNc1nc2c(c(=O)[nH]c(=O)n2C)n1CC(O)COc1ccc(Cl)cc1 (stereo unspecified)	-6%
120	CCN(CC)c1ccc(NC(=O)Nc2ccccc2C(F)(F)F)cc1	u
121	CCCCc1nnc(NC(=O)c2ccc(S(=O)(=O)N3CCOCC3)cc2)s1	-3%

Compound activity: PubChem BioAssay, National Center for Advancing Translational Sciences (NCATS)

Only part of the results is shown, so the mix of outcomes need not match the whole.
